# AID504770 = growth inhibition of E. coli YBA685, primary screen, V. cholerae RctB inhibitors | actives 0.27% (n = 130,000) | E. coli YBA685 rctB-dependent plasmid, OD600 growth, 3 h; hits give low values | z-score (concentration not given with the values);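 active = z-score under -2 on both plates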;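 note: wells of about 30 µL received 100 nL stock; score is relative to mean and SD of the test wells; the first replicate is given; strong numbers were not always called active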
# Ba CapD inh = Bacillus anthracis CapD inhibitors, primary screen, biochemical, fluorescence intensity | CapD gamma-glutamyltranspeptidase (Bacillus anthracis Ames Ancestor) | purified CapD enzyme, fluorescence intensity read-out; hits give low values; some hits fall short of the stated cut | z-score (no concentration beside the values) | actives 0.23% (n = 140,000) | AID 492967, 2010;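 active = z-score under -4 in either of two replicates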;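 note: stock transfer was 100 nL into about 40 µL; score is relative to mean and spread of the plate; one replicate is shown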
# Starred values were filed as active, the others as inactive; . = not tested or not shown.
SMILES,AID504770,Ba CapD inh
O=C(O)c1ccccc1C(=O)Nc1ccc(S(=O)(=O)N2CCOC3CCCCC32)cc1 (configuration not stated),.,-0.47
COC(=O)c1ccc(COc2ccccc2C(N)=O)cc1,-0.45,.
O=C(C1CCN(c2ncc(-c3ccc(Cl)cc3)cn2)CC1)N1CCN(c2ccccn2)CC1,.,4.25
CCOC(=O)c1[nH]c(C)c(C(=O)OCc2c(C)noc2C)c1C,0.1,.
O=C(Cn1c(-c2ccccc2)noc1=O)Nc1cccc(Cl)c1Cl,-0.05,.
Cc1ccc(S(=O)(=O)N2CCCCC2C)cc1 (configuration not stated),-0.25,.
O=C(O)C1C2CC3CC(C2)CC1(n1ncc(N2CCOCC2)c(Cl)c1=O)C3 (configuration not stated),-0.85,-0.03
CCC(C)NC(=O)c1ccc2c(c1)ncn2-c1ccc(OC)cc1 (configuration not stated),-0.5,-0.15
S=C(Nc1cccnc1)NC1CCCC1,-0.3,1.62
O=C(CSc1ccccn1)Nc1cc(Cl)cc(Cl)c1,1.15,-0.085
COc1ccc(S(=O)(=O)N2CCC(NC(=O)NCCN3CCCCC3)CC2)cc1,0.05,0.475
CC1(C)Cc2nc3sc4c(N5CCOCC5)ncnc4c3cc2CO1,1.8,.
Cc1nnc(NC(=O)CSC2CCCCC2)s1,-1.15,-0.35
COc1ccc(CNc2ccccc2-c2nc3ccccc3[nH]2)cc1,.,84.2
CCN(CC)c1nc(C)nc2sc(C(=O)Nc3ccc(C)c(F)c3)c(C)c12,.,-0.105
CC(C)(C)c1csc(NC(=O)/C=C/c2ccccc2)n1,-1,0.225
CC(=O)NS(=O)(=O)c1ccc(NC(=O)C2CCCC2)cc1,-0.1,0.25
COc1ccc(/C=C2\OC(=S)N(C)C2=O)cc1,0.05,52.1
CCOC(=O)c1ccc(Nc2c(C(=O)OCC)cnc3ccccc23)cc1,1.2,-0.945
CCN(CC)C(=O)CSc1nc(C)cc(=O)[nH]1,-0.85,.
COc1ccc(S(=O)(=O)N2CCCCC2C)cc1 (configuration not stated),-0.8,-0.21
O=C(O)Cc1nnn(C2CCCCC2)n1,2.05,-0.25
CNC(=O)c1ccc(-c2sc3nc(N4CCOCC4)c4c(c3c2N)CCCC4)o1,.,3.62
N#CC(O[C@@H]1O[C@H](CO[C@@H]2O[C@H](CO)[C@@H](O)[C@H](O)[C@H]2O)[C@@H](O)[C@H](O)[C@H]1O)c1ccccc1 (some centres not stated),0.45,-0.05
CCN(CCC#N)C(=O)c1c(-c2c(Cl)cccc2Cl)noc1C,0.85,0.925
Cc1nc(N2CCOCC2)c2c(C)c(C(=O)NC3CCCCCC3)sc2n1,.,1.26
O=C(COc1ccccc1)Nc1ccccc1N1CCCCC1,0.7,0.865
O=C(NCC(O)c1ccccc1)c1cccs1 (configuration not stated),-0.35,0.39
CNC(=O)/C(=C\c1ccccc1)NC(=O)c1ccc(Cl)cc1Cl,-0.3,0.59
Cc1ccc2nc(SCC(=O)c3cc(C)n(C4CC4)c3C)[nH]c2c1,0.35,.
Cc1ccccc1OCC(=O)NCc1ccccc1,-0.05,-0.44
CS(=O)(=O)N1CCc2cc(NC3CCN(Cc4ccccc4)CC3)ccc21,.,0.57
CCCCN(CC)C(=O)c1cc2c(-c3ccc(Cl)cc3)nn(C)c2s1,-0.15,0.015
COc1ccccc1CNC(=O)CCn1c(=O)c2ccccc2n(CC(=O)NCC2CCCO2)c1=O (configuration not stated),-0.05,0.35
CN=C(Cc1ccccc1)C1=C(O)CC(C)(C)CC1=O,3.3,.
CCOC(=O)C1=c2s/c(=C/c3cccs3)c(=O)n2C(N)=C(C#N)C1c1cccs1 (configuration not stated),0.2,0.465
COc1ccc(CN2C(=O)c3ccccc3C2C(=O)NCCCN2CC(C)CC(C)C2)cc1 (configuration not stated),-0.55,-0.47
CCOC(=O)C1=C(c2ccccc2)OC(N)=C(C#N)C12C(=O)Nc1ccccc12 (configuration not stated),.,-0.185
Nc1ccc(Oc2cccnc2)nc1,.,-0.34
CCc1cc2c(cc1C(=O)c1ccc(I)cc1)OCCO2,-0.05,0.195
Cc1ccc(N2C(=O)/C(=C\c3ccc(C(C)C)cc3)C3=C2C(=O)N(c2ccc(C)cc2)C3c2ccccc2)cc1 (configuration not stated),.,-0.59
CCOC(=O)c1cnc2c(OC)cccc2c1NCC1COc2ccccc2O1 (configuration not stated),-0.9,68.6
N#CCSc1nn(-c2ccc(F)cc2)c(=S)s1,-0.4,.
Cc1ccc2nc(C)nc(-c3ccccc3)c2c1,-1.2,-0.12
O=C(O)c1ccc(-c2cnc3ccccc3n2)cc1,-0.25,3.6
CC1=NN(CCC#N)C(c2ccccc2)C1 (configuration not stated),1,.
CCSc1nc2c(sc3ccccc32)c(=O)n1C(C)C,-0.15,0.51
O=C(Nc1ccccn1)c1ccc(Cl)s1,0.1,-0.61
O=C(C1CC1(c1ccccc1)c1ccccc1)N1CCCCC1 (configuration not stated),-0.2,0.735
CCCC(=O)Nc1ccc(NC(=O)c2ccc(OC)cc2)cn1,-0.8,.
# (listing goes on)
SMILES,AID504770,Ba CapD inh
COc1ccc(OC)c2nc3c(cc12)CCCCC3,-0.2,2.57
C=CCc1cccc2cc(C(N)=S)c(=N)oc12,0.55,-0.2
O=C(/C=C/c1ccc(F)cc1Cl)NNC(=O)OCCCc1ccncc1,.,15.4
Cc1nnc(-c2ccccc2)nn1,-0.85,-0.49
CCNC(=O)CSc1n[nH]c(-c2ccc(C)cc2)n1,-0.95,.
Clc1ccc(-c2csc(-c3cccnc3)n2)cc1,.,2.36
CN(CC(=O)Nc1ccc(F)c(F)c1F)C(=O)c1ccc(N2CCCC2=O)cc1,-0.15,.
Cc1cc(C)c2c(N)c(S(=O)(=O)c3ccccc3)sc2n1,-1.05,12.4
COc1cccc2c1OC1(C)C(C(=O)Nc3ccc(C)cc3C)C2NC(=S)N1c1ccc(F)cc1 (configuration not stated),-0.8,4.01
CCS(=O)(=O)c1nc(S(=O)(=O)c2ccc(C)cc2)c(NCc2ccco2)s1,1.05,-0.93
CC1CCCCN1CCNC(=O)c1cccn2c(=O)c3c4c(sc3nc12)CCCC4 (configuration not stated),0.2,0.26
O=S(=O)(Cc1ccco1)Cc1nc(-c2ccc(Cl)cc2)cs1,-0.55,0.255
Cc1ccc(-c2nnc(Oc3ccc(OCc4ccccc4)cc3)c3ccccc23)cc1,.,-0.095
COC(=O)C(CC(C)C)NC(=O)CSc1nnc2c(n1)[nH]c1ccccc12 (configuration not stated),.,-0.34
NNC(=O)c1ccco1,-0.6,.
COc1ccc(-c2cc(C(=O)N3CCCC3)no2)cc1,-1,-1.12
c1cc2c(cc1-c1noc(C3CCNCC3)n1)OCO2,.,-0.065
CCc1cccc(CC)c1N(COC)C(=O)Cn1cnc2ccccc21,0.7,0.855
CC(CCc1ccccc1)N1CCN(c2ccccc2F)CC1 (configuration not stated),-0.5,0.275
Cc1csc2c(C#N)c(=O)c3c(n12)CCC3,-0.35,.
COC(=O)c1cc2c(C(F)(F)F)nn(C)c2s1,0.05,0.155
COc1cc(NC(=O)CCOc2ccc(F)cc2)cc(OC)c1OC,-1.15,-0.89
O=C(OCc1nc2ccccc2s1)c1ccc2c(c1)C(=O)N(Cc1ccco1)C2=O,-0.45,.
O=C(c1ccccc1)c1cc[n+](Cc2ccccn2)cc1,-0.9,0.05
O=C1NC(=Nc2cccc(C(F)(F)F)c2)S/C1=C/c1cccs1,2.45,-0.9
CCCCOc1ccc(C(=O)Nc2ccc(-c3nc4ccccc4o3)c(O)c2)cc1,0.9,0.615
CCC(C)(O)CC(=O)N1CCC(Cc2ccccc2)CC1 (configuration not stated),.,-0.22
O=C(O)c1nnn(Cc2ccccc2)c1C(=O)O,1.8,-0.965
COc1cccc(OC)c1C(=O)Nc1ccc(N2CCN(C(C)=O)CC2)c(Cl)c1,0.1,.
Cc1csc2ncnc(N3CCC(C(=O)O)CC3)c12,-0.7,-0.78
CSc1ccc(Cl)cc1NC(=O)C(F)(F)F,-0.5,-1.24
Cc1ccc(C(c2nnnn2C2CCCC2)N2CCc3ccccc32)cc1 (configuration not stated),1.85,.
Cc1[nH]nc2c1C1(CCN(C(=O)c3ccccc3)CC1)C(C#N)=C(N)O2,-0.7,40.9
COc1ccc(NC(=O)c2c(NC(=O)c3ccccc3C)sc3c2CCCCC3)cc1,.,3.73
CCc1ccccc1NC(=O)c1cc(-c2ccccc2O)on1,0.6,0.79
NC(=O)COC(=O)c1ccc(Cl)cc1,-0.15,.
CCN(CC)CCN1C(=O)C(=O)/C(=C(\O)c2ccccc2)C1c1ccccc1 (configuration not stated),.,6.04
NC(=NCc1ccccc1)NS(=O)(=O)c1ccccc1,0.15,0.345
O=COC1CCCCC1NS(=O)(=O)c1ccccc1 (configuration not stated),-0.5,.
CSc1ccccc1C(=O)OCC(=O)NC1CCCC1,1.45,.
COc1cccc2cc(-c3ccc(F)cc3)c(=O)oc12,-0.85,1.42
COc1ccc(NC(=O)c2ccccc2NC(=O)c2ccco2)cc1,0.1,.
Cc1cccc(Cn2c(-c3cccnc3Cl)nc3cc(C)c(C)cc32)c1,.,3.96
O=C(CSc1nnnn1C1CCCC1)N1CCCC1,-0.6,.
CN1C(=O)C(O)(C2COC(C)(C)CC2=O)c2ccccc21 (configuration not stated),.,0.04
CCCCN(C)S(=O)(=O)c1ccc(-c2ccc(=O)[nH]n2)o1,0.25,3.5
Cc1ccc(S(=O)(=O)N2CCC(C(=O)OCc3cc(=O)n4cc(C)ccc4n3)CC2)cc1,0.05,.
CCOc1ccc(Cc2nc(C)c(CC(=O)N3CCCCC3)c(=O)[nH]2)cc1,-0.7,-0.2
C=CCn1c(O)c(C2=c3cc(Br)ccc3=NC2=O)c2ccccc21,0.4,0.31
CCOc1ccc(-c2nc3cc(N)ccc3o2)cc1,0.75,4.22
# Other compounds:
SMILES,AID504770,Ba CapD inh
COC(=O)CNC(=O)c1cccnc1Sc1ccccc1,.,-0.38
O=C(CO)c1ccc(F)cc1,-0.6,0.43
CON(C)S(=O)(=O)c1ccc(C(=O)O)cc1,-0.6,.
COc1ccc2nc(NC(=O)c3ccc(Br)cc3)sc2c1,0.8,0.01
CC(c1ccccc1)n1c(CCCO)nc2ccccc21 (configuration not stated),0,0.615
Cc1cccc(C)c1NC(=O)Cn1nnc(C(=O)NCc2ccccc2Cl)c1N,1.65,-0.175
O=C(COC(=O)c1cccs1)NC1CCCC1,0.15,0.105
O=S(=O)(NCc1ccc2c(c1)CCO2)c1ccc(C(F)(F)F)cc1,-0.1,0.345
CC(C)COc1cccc(OCC(=O)NC(C)C(=O)O)c1 (configuration not stated),1.15,.
Cc1cc(C)n(-c2nnc3n2N=C(c2c[nH]c4ccccc24)CS3)n1,1.35,-2.5
Cc1ccc2nc(C3CCCCC3)oc2c1,-0.5,-0.115
CC(C)(C)C(=O)/C=C/c1ccco1,1,-0.375
COc1ccc(CCNC(=O)CSc2ncnc3c2nnn3Cc2ccccc2)cc1OC,-0.15,-0.13
COc1ccc(C2CC(=O)N(CC(N)=O)c3ccccc3S2)cc1OC (configuration not stated),-1.2,-0.485
CCCCc1nc2ccccc2c(=O)n1NC(=O)c1c(O)c2c(n(CC(C)C)c1=O)CCCC2,.,-0.16
CCN(CC)S(=O)(=O)c1ccc(C(=O)OCCN2C(=O)c3cccc4c(N5CCOCC5)ccc(c34)C2=O)cc1,.,-0.355
COc1ccc(Sc2ccccc2COC(C)=O)c(C(=O)O)c1,-1,0.18
COc1ccc(NC(=O)C23CCC(C)(C(=O)O2)C3(C)C)cc1 (configuration not stated),0.35,0.165
CN(C)c1ccc(NC(=O)CC2SC(N)=NC2=O)cc1 (configuration not stated),-0.7,-0.405
NC(=O)C1CCN(C(=O)c2ccc3c(=O)n(-c4ccccc4)c(SCC(=O)N4CCCC4)nc3c2)CC1,.,0.535
c1ccc(CNC2=NCCCCC2)nc1,-0.45,.
CC(=O)c1ccccc1NS(=O)(=O)c1cc(Cl)c(Cl)cc1Cl,.,-0.485
NNC(=O)c1nnn(-c2nonc2N)c1CNc1ccccc1,1.5,-0.255
O=C(c1cccc(N2C(=O)c3ccccc3C2=O)c1)N1CCCCC1,-0.9,0.715

# A different layout for some results above.
# Values run as follows: AID504770	Ba CapD inh
- CC1(C)Cc2nc3sc4c(N5CCOCC5)ncnc4c3cc2CO1
→ 1.8	.
- Cc1nnc(NC(=O)CSC2CCCCC2)s1
→ -1.15	-0.35
- COc1ccc(CNc2ccccc2-c2nc3ccccc3[nH]2)cc1
→ .	84.2
- CCN(CC)c1nc(C)nc2sc(C(=O)Nc3ccc(C)c(F)c3)c(C)c12
→ .	-0.105
- CC(C)(C)c1csc(NC(=O)/C=C/c2ccccc2)n1
→ -1	0.225
- CC(=O)NS(=O)(=O)c1ccc(NC(=O)C2CCCC2)cc1
→ -0.1	0.25
- COc1ccc(/C=C2\OC(=S)N(C)C2=O)cc1
→ 0.05	52.1
- CCOC(=O)c1ccc(Nc2c(C(=O)OCC)cnc3ccccc23)cc1
→ 1.2	-0.945
- CCN(CC)C(=O)CSc1nc(C)cc(=O)[nH]1
→ -0.85	.
- COc1ccc(S(=O)(=O)N2CCCCC2C)cc1 (configuration not stated)
→ -0.8	-0.21
- O=C(O)Cc1nnn(C2CCCCC2)n1
→ 2.05	-0.25
- CNC(=O)c1ccc(-c2sc3nc(N4CCOCC4)c4c(c3c2N)CCCC4)o1
→ .	3.62
- N#CC(O[C@@H]1O[C@H](CO[C@@H]2O[C@H](CO)[C@@H](O)[C@H](O)[C@H]2O)[C@@H](O)[C@H](O)[C@H]1O)c1ccccc1 (some centres not stated)
→ 0.45	-0.05
- CCN(CCC#N)C(=O)c1c(-c2c(Cl)cccc2Cl)noc1C
→ 0.85	0.925
- Cc1nc(N2CCOCC2)c2c(C)c(C(=O)NC3CCCCCC3)sc2n1
→ .	1.26
- O=C(COc1ccccc1)Nc1ccccc1N1CCCCC1
→ 0.7	0.865
- O=C(NCC(O)c1ccccc1)c1cccs1 (configuration not stated)
→ -0.35	0.39
- CNC(=O)/C(=C\c1ccccc1)NC(=O)c1ccc(Cl)cc1Cl
→ -0.3	0.59
- Cc1ccc2nc(SCC(=O)c3cc(C)n(C4CC4)c3C)[nH]c2c1
→ 0.35	.
